Ran importin: inhibitors of Ran–importin-beta complex formation, primary screen, biochemical, CFP-Ran/YFP-importin-beta FRET, RCC1, cell-free (AID 434961); Regulator of chromosome condensation (Homo sapiens) + GTP-binding nuclear protein Ran …; CFP-Ran/YFP-importin-beta FRET, cell-free; stronger effect = higher value; inhibition, %; 7,700 compounds, 0.2% hits;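 active means more than half of the replicate wells above 15% inhibition; inconclusive means exactly half above it; inactive means fewer than half above it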;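 further: 0% = DMSO wells and 100% inhibition = RanGDP control wells on each plate; stock of unstated strength diluted about 400-fold; mean of two wells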
Active calls of the source: *; u = inconclusive.

SMILES	Ran importin
C[C@@H]1CN([C@@H](C)CO)C(=O)c2cc(NC(=O)Nc3ccc4c(c3)OCO4)ccc2O[C@@H]1CN(C)Cc1ccc(C(=O)O)cc1	-3.7
Cc1noc(C)c1NC(=O)N(C)C[C@@H]1Oc2ccc(NC(=O)NC3CCCCC3)cc2C(=O)N([C@H](C)CO)C[C@@H]1C	-2.0
C[C@@H]1CN([C@@H](C)CO)C(=O)c2cc(NC(=O)c3ccncc3)ccc2O[C@@H]1CN(C)C(=O)NC1CCCCC1	-0.1
C[C@H]1CN([C@@H](C)CO)C(=O)c2cc(NS(=O)(=O)c3cccs3)ccc2O[C@H]1CN(C)Cc1ccc(-c2ccccc2)cc1	-3.3
C[C@@H]1CN([C@@H](C)CO)C(=O)c2cc(NS(=O)(=O)c3cn(C)cn3)ccc2O[C@@H]1CN(C)S(=O)(=O)c1cn(C)cn1	-0.8
COc1ccc(CN(C)C[C@@H]2Oc3ccc(NC(=O)Nc4ccc(C(F)(F)F)cc4)cc3C(=O)N([C@H](C)CO)C[C@@H]2C)cc1	-0.9
CC(C)NC(=O)Nc1cccc2c1O[C@H](CN(C)Cc1ccc(Cl)c(Cl)c1)[C@H](C)CN([C@@H](C)CO)C2=O	0.4
C[C@@H]1CN([C@@H](C)CO)C(=O)c2cccc(NC(=O)c3nc4ccccc4s3)c2O[C@H]1CN(C)C(=O)Nc1ccc(C(F)(F)F)cc1	4.8
CC(C)NC(=O)Nc1ccc2c(c1)C(=O)N([C@@H](C)CO)C[C@H](C)[C@@H](CN(C)S(=O)(=O)c1cccs1)OCCCC[C@H](C)O2	0.9
C[C@@H]1CCCCO[C@@H](CN(C)Cc2ccc(C(=O)O)cc2)[C@@H](C)CN([C@@H](C)CO)C(=O)c2cc(NS(C)(=O)=O)ccc2O1	-4.2
Cc1noc(C)c1NC(=O)Nc1ccc2c(c1)CC(=O)N([C@H](C)CO)C[C@H](C)[C@H](CN(C)Cc1ccncc1)O2	0.9
C[C@@H]1CN([C@@H](C)CO)C(=O)c2cc(N(C)C)ccc2O[C@@H](C)CCCCO[C@H]1CN(C)S(=O)(=O)c1ccccc1	6.1
CC(C)NC(=O)N(C)C[C@H]1Oc2ccc(NC(=O)CCC(F)(F)F)cc2C(=O)N([C@H](C)CO)C[C@@H]1C	-4.1
CNC[C@@H]1Oc2ccc(NC(=O)CCN3CCOCC3)cc2C(=O)N([C@H](C)CO)C[C@H]1C	-0.8
C[C@H]1CCCCO[C@H](CN(C)C)[C@@H](C)CN([C@@H](C)CO)C(=O)c2cc(NC(=O)CCC(F)(F)F)ccc2O1	4.9
C[C@@H]1CN([C@H](C)CO)C(=O)c2cc(NC(=O)NC3CCCCC3)ccc2O[C@H]1CN(C)S(=O)(=O)c1ccc(Cl)cc1	-2.0
C[C@@H]1CN([C@@H](C)CO)C(=O)Cc2cc(NC(=O)Nc3ccc4c(c3)OCO4)ccc2O[C@@H]1CN(C)C	3.9
C[C@@H]1CN([C@@H](C)CO)C(=O)c2cc(NS(=O)(=O)c3cccs3)ccc2O[C@@H]1CN(C)C	-3.3
C[C@H](CO)N1C[C@H](C)[C@H](CN(C)C(=O)Nc2ccc(C(F)(F)F)cc2)Oc2c(cccc2N(C)C)C1=O	2.1
C[C@H]1CN([C@@H](C)CO)C(=O)c2cccc(NS(=O)(=O)c3cccs3)c2O[C@@H]1CN(C)Cc1ccc(Cl)c(Cl)c1	1.2

Some of the entries above, reformatted.
structure,Ran importin
CC(C)NC(=O)N(C)C[C@H]1Oc2ccc(NC(=O)CCC(F)(F)F)cc2C(=O)N([C@H](C)CO)C[C@@H]1C,-4.1
Cc1noc(C)c1NC(=O)Nc1ccc2c(c1)CC(=O)N([C@H](C)CO)C[C@H](C)[C@H](CN(C)Cc1ccncc1)O2,0.9

(listing goes on)
SMILES	Ran importin
C[C@@H]1CCCCO[C@@H](CN(C)C(=O)Nc2ccccc2)[C@@H](C)CN([C@@H](C)CO)C(=O)c2cc(NC(=O)Cc3ccccc3)ccc2O1	0.5
COc1ccc(S(=O)(=O)N(C)C[C@@H]2Oc3ccc(NC(=O)Nc4ccc5c(c4)OCO5)cc3C(=O)N([C@@H](C)CO)C[C@@H]2C)cc1	0.9
C[C@@H]1CN([C@H](C)CO)C(=O)c2cc(NC(=O)C3CC3)ccc2O[C@H]1CN(C)S(=O)(=O)c1cn(C)cn1	-1.2
COc1ccccc1CN(C)C[C@@H]1OCc2cn(nn2)CCCC(=O)N([C@@H](C)CO)C[C@@H]1C	u
C[C@H]1CN([C@@H](C)CO)C(=O)Cc2cc(NC(=O)Nc3cccc4ccccc34)ccc2O[C@H]1CN(C)CC1CC1	-2.5
CNC[C@H]1OCCCC[C@H](C)Oc2ccc(NC(=O)CCCN(C)C)cc2C(=O)N([C@H](C)CO)C[C@@H]1C	-1.3
Cc1noc(C)c1S(=O)(=O)Nc1ccc2c(c1)C(=O)N([C@H](C)CO)C[C@H](C)[C@H](CN(C)C(=O)c1ccncc1)OCCCC[C@H](C)O2	u
C[C@H](CO)N1C[C@H](C)[C@H](CN(C)S(=O)(=O)c2cn(C)cn2)Oc2ccc(NC(=O)NC3CCCCC3)cc2C1=O	0.9
Cc1noc(C)c1NC(=O)N(C)C[C@H]1Oc2ccc(NC(=O)Cn3cnnn3)cc2C(=O)N([C@@H](C)CO)C[C@@H]1C	-3.4
C[C@@H]1CN([C@@H](C)CO)C(=O)c2cccc(N(C)C)c2O[C@@H]1CN(C)Cc1ccccc1	0.6
C[C@H]1CN([C@@H](C)CO)C(=O)c2cccc(NS(=O)(=O)c3ccccc3)c2O[C@H]1CN(C)C(=O)Nc1ccc2c(c1)OCO2	1.5
C[C@H](CO)N1C[C@H](C)[C@@H](CN(C)Cc2ccncc2)OCCCC[C@H](C)Oc2ccc(N(C)C)cc2C1=O	11
C[C@H](CO)N1C[C@H](C)[C@H](CN(C)C(=O)Nc2ccc(F)cc2)Oc2c(NC(=O)C3CCOCC3)cccc2C1=O	1.1
C[C@H](CO)N1C[C@H](C)[C@H](CN(C)C(=O)Nc2ccccc2)Oc2ncccc2C1=O	-4.3
COc1ccc(S(=O)(=O)Nc2ccc3c(c2)C(=O)N([C@H](C)CO)C[C@H](C)[C@@H](CN(C)Cc2ccc(C(F)(F)F)cc2)O3)cc1	4.7
Cc1noc(C)c1S(=O)(=O)N(C)C[C@H]1OCCCC[C@@H](C)Oc2ccc(NC(=O)NC(C)C)cc2C(=O)N([C@@H](C)CO)C[C@H]1C	4.5
C[C@@H]1CN([C@H](C)CO)C(=O)CCCn2nncc2CO[C@@H]1CN(C)Cc1ccc(Oc2ccccc2)cc1	-1.5
C[C@H]1CN([C@@H](C)CO)C(=O)c2cc(NS(=O)(=O)c3cccs3)ccc2O[C@H]1CN(C)C	2.3
C[C@@H]1CCCCO[C@H](CN(C)S(=O)(=O)c2cccs2)[C@@H](C)CN([C@@H](C)CO)C(=O)c2cc(NS(=O)(=O)c3cccs3)ccc2O1	3.6
CC(C)NC(=O)N(C)C[C@@H]1Oc2ccc(NC(=O)C3CC3)cc2C(=O)N([C@@H](C)CO)C[C@H]1C	0.5
COc1ccc(S(=O)(=O)N(C)C[C@H]2Oc3c(NS(=O)(=O)c4c(C)noc4C)cccc3C(=O)N([C@H](C)CO)C[C@H]2C)cc1	u
C[C@@H]1CN([C@H](C)CO)C(=O)Cc2cc(NC(=O)CCN3CCOCC3)ccc2O[C@@H]1CN(C)S(=O)(=O)c1cn(C)cn1	-0.4
C[C@@H]1CN([C@@H](C)CO)C(=O)CCCn2nncc2CO[C@H]1CN(C)Cc1ccc2c(c1)OCCN2C	4.3
C[C@@H]1CN([C@@H](C)CO)C(=O)c2cccc(NC(=O)C3CCOCC3)c2O[C@@H]1CN(C)S(=O)(=O)c1cccs1	-1.0
COc1ccc(CN(C)C[C@H]2Oc3ccc(NC(=O)Nc4cccc5ccccc45)cc3C(=O)N([C@H](C)CO)C[C@@H]2C)cc1	3.7
C[C@H]1CN([C@@H](C)CO)C(=O)c2cccc(NC(=O)NC3CCCCC3)c2O[C@H]1CN(C)C(=O)Nc1ccc(F)cc1	0.9
Cc1noc(C)c1S(=O)(=O)N(C)C[C@@H]1OCCCC[C@H](C)Oc2ccc(NS(C)(=O)=O)cc2C(=O)N([C@@H](C)CO)C[C@H]1C	-4.3
C[C@@H]1CCCCO[C@H](CN(C)S(=O)(=O)c2ccccc2)[C@H](C)CN([C@H](C)CO)C(=O)c2cc(NC(=O)Nc3ccccc3)ccc2O1	0.4
C[C@@H]1CCCCO[C@@H](CN(C)Cc2ccc(C(=O)O)cc2)[C@@H](C)CN([C@H](C)CO)C(=O)c2cc(NC(=O)C3CCCCC3)ccc2O1	1.1
Cc1noc(C)c1NC(=O)N(C)C[C@H]1Oc2ccc(NC(=O)Nc3ccc4c(c3)OCO4)cc2C(=O)N([C@H](C)CO)C[C@H]1C	-1.2
Cc1noc(C)c1NC(=O)N(C)C[C@@H]1Oc2c(NC(=O)c3ccc(-c4nccs4)cc3)cccc2C(=O)N([C@H](C)CO)C[C@@H]1C	3.7
Cc1noc(C)c1NC(=O)N(C)C[C@@H]1Oc2ccc(NC(=O)Nc3ccc4c(c3)OCO4)cc2CC(=O)N([C@H](C)CO)C[C@@H]1C	-0.9
C[C@H]1CCCCO[C@@H](CN(C)Cc2ccncc2)[C@@H](C)CN([C@@H](C)CO)C(=O)c2cc(NS(C)(=O)=O)ccc2O1	8.0
COc1ccc(S(=O)(=O)N(C)C[C@@H]2Oc3ccc(NC(=O)Nc4cccc5ccccc45)cc3CC(=O)N([C@@H](C)CO)C[C@@H]2C)cc1	-1.1
C[C@H]1CN([C@@H](C)CO)C(=O)Cc2cc(NC(=O)Cc3ccccc3)ccc2O[C@H]1CN(C)C(=O)NC1CCCCC1	6.8
C[C@H](CO)N1C[C@H](C)[C@@H](CN(C)C(=O)c2ccncc2)OCCCC[C@H](C)Oc2ccc(NS(C)(=O)=O)cc2C1=O	1.5
CNC[C@H]1Oc2c(NC(=O)C3CCOCC3)cccc2C(=O)N([C@@H](C)CO)C[C@@H]1C	-1.7
COc1ccc(CN(C)C[C@@H]2Oc3ccc(NC(=O)Cc4ccccc4)cc3C(=O)N([C@H](C)CO)C[C@H]2C)cc1	0.0
C[C@@H]1CN([C@H](C)CO)C(=O)Cc2cc(NC(=O)C3CC3)ccc2O[C@@H]1CN(C)Cc1ccncc1	1.4
COc1ccc(CN(C)C[C@@H]2Oc3ccc(NC(=O)Cn4cnnn4)cc3CC(=O)N([C@H](C)CO)C[C@@H]2C)cc1	-1.9

Fetched one by one from the list above (2):
SMILES	Ran importin
Cc1noc(C)c1NC(=O)N(C)C[C@@H]1Oc2ccc(NC(=O)Nc3ccc4c(c3)OCO4)cc2CC(=O)N([C@H](C)CO)C[C@@H]1C	-0.9
COc1ccc(CN(C)C[C@@H]2Oc3ccc(NC(=O)Cc4ccccc4)cc3C(=O)N([C@H](C)CO)C[C@H]2C)cc1	0.0

The listing continues.
SMILES	Ran importin
C[C@@H]1CN([C@@H](C)CO)C(=O)CCCn2cc(nn2)CO[C@H]1CN(C)Cc1ccc2cccnc2c1	-4.1
Cc1noc(C)c1S(=O)(=O)Nc1ccc2c(c1)C(=O)N([C@H](C)CO)C[C@H](C)[C@@H](CN(C)C(=O)Nc1ccccc1)OCCCC[C@@H](C)O2	2.0
C[C@H]1CN([C@@H](C)CO)C(=O)c2cc(NS(=O)(=O)c3ccc(Cl)cc3)ccc2O[C@@H]1CN(C)C(=O)Nc1ccc2c(c1)OCO2	u
CNC[C@H]1Oc2ccc(NC(=O)CCCN(C)C)cc2C(=O)N([C@@H](C)CO)C[C@H]1C	-3.3
C[C@H]1CCCCO[C@@H](CN(C)C(=O)c2ccncc2)[C@@H](C)CN([C@@H](C)CO)C(=O)c2cc(NS(C)(=O)=O)ccc2O1	-0.2
Cc1noc(C)c1S(=O)(=O)N(C)C[C@H]1Oc2ccc(NC(=O)CCN3CCOCC3)cc2CC(=O)N([C@@H](C)CO)C[C@H]1C	1.2
Cc1noc(C)c1NC(=O)Nc1ccc2c(c1)CC(=O)N([C@H](C)CO)C[C@H](C)[C@H](CN(C)S(=O)(=O)c1ccccc1)O2	0.4
C[C@@H]1CCCCO[C@@H](CN(C)C)[C@H](C)CN([C@H](C)CO)C(=O)c2cc(NC(=O)Nc3ccc(F)cc3)ccc2O1	2.1
C[C@@H]1CN([C@@H](C)CO)C(=O)Cc2cc(NS(=O)(=O)c3cn(C)cn3)ccc2O[C@H]1CN(C)CC1CC1	-2.2
C[C@H](CO)N1C[C@H](C)[C@@H](CN(C)S(=O)(=O)c2cccs2)Oc2ccc(NS(C)(=O)=O)cc2CC1=O	-3.1

Compounds listed so far that contain a COOH group:
SMILES	Ran importin
C[C@@H]1CN([C@@H](C)CO)C(=O)c2cc(NC(=O)Nc3ccc4c(c3)OCO4)ccc2O[C@@H]1CN(C)Cc1ccc(C(=O)O)cc1	-3.7
C[C@@H]1CCCCO[C@@H](CN(C)Cc2ccc(C(=O)O)cc2)[C@@H](C)CN([C@@H](C)CO)C(=O)c2cc(NS(C)(=O)=O)ccc2O1	-4.2
C[C@@H]1CCCCO[C@@H](CN(C)Cc2ccc(C(=O)O)cc2)[C@@H](C)CN([C@H](C)CO)C(=O)c2cc(NC(=O)C3CCCCC3)ccc2O1	1.1

Other structures:
SMILES	Ran importin
C[C@@H]1CN([C@@H](C)CO)C(=O)c2cc(NS(C)(=O)=O)ccc2O[C@@H](C)CCCCO[C@H]1CN(C)C(=O)c1ccccc1	-2.1
CNC[C@@H]1Oc2c(NC(=O)Nc3cccc4ccccc34)cccc2C(=O)N([C@@H](C)CO)C[C@H]1C	-0.6
COc1ccc(CN(C)C[C@@H]2Oc3ccc(NC(=O)Nc4ccc(F)cc4)cc3C(=O)N([C@H](C)CO)C[C@H]2C)cc1	-3.9
CC(C)NC(=O)Nc1ccc2c(c1)C(=O)N([C@@H](C)CO)C[C@@H](C)[C@H](CN(C)Cc1ccccc1)O2	-1.8
Cc1noc(C)c1NC(=O)Nc1ccc2c(c1)CC(=O)N([C@@H](C)CO)C[C@H](C)[C@@H](CN(C)S(=O)(=O)c1ccccc1)O2	-0.3

This is a subset; the hit share may differ from the screen's.
